# Menin-MLL FL inh: displaces fluorescein MLL peptide from human menin. AID 1766. 290,000 tested, under 10 active. FP activity change, % at 61.4 µM. Fluorescence polarization, fluorescein-MLL peptide displacement from menin; inconclusive = falling polarisation curve, or a change in total fluorescence; inactive = total fluorescence flat and polarisation flat or rising; no compound was filed as active; the % refers to the polarisation; negative = inhibition;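 also: % of control where 0% means no effect; inhibitors lower the polarisation; unlabelled MLL peptide was the positive control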
# TRPV1 potentiator: human TRPV1 potentiation; Q8NER1; potentiation, % at 8.33 µM; AID 540277; 0.02% of 320,000 active; TRPV1-expressing cells, Fluo-8 calcium influx, capsaicin EC20 potentiation; host cell line not named in the record; control for the full effect not named in the record; active means potentiation above 80%; inconclusive means 30% to 80%; inactive means below 30%; also: 0% is about no effect
# Target sequence (Q8NER1 whole entry, looked up): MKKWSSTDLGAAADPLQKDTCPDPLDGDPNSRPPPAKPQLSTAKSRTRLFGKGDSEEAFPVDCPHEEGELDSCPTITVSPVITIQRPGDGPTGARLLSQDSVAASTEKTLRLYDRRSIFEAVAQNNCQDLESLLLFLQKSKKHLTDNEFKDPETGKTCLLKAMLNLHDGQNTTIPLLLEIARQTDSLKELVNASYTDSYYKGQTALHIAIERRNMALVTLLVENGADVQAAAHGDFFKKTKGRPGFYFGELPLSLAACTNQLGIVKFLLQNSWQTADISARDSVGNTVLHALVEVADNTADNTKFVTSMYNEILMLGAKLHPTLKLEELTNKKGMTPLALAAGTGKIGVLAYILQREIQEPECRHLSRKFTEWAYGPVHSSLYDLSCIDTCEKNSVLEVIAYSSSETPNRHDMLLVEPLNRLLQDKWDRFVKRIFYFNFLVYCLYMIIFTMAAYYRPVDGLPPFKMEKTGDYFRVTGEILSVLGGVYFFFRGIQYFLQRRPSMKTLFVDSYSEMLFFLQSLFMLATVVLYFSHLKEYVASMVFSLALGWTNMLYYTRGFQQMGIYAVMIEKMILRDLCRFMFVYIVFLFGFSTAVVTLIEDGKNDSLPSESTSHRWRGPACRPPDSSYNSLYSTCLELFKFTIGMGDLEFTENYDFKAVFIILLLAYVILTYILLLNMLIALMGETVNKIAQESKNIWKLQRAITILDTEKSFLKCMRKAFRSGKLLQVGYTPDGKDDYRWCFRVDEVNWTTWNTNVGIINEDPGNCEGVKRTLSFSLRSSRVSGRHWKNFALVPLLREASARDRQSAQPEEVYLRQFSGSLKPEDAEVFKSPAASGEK
#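 Fluo-8 calcium influx in TRPV1-expressing cells, kinetic read (ex 480/em 520 nm). Compound added and read 3 min for agonist activity, followed by capsaicin at EC20 final and 2 min further read for enhancement.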
# D2 potentiator: positive allosteric modulators of human D2 dopamine receptor; P14416; DiscoveRx D2 beta-arrestin cells, luminescence, 90 min; 100% = 57 uM dopamine signal; potentiation, % (test concentration not listed); 0.23% of 360,000 active; active = potentiation of 50% or more; inconclusive = 30% to 50%; inactive = 30% or less;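 also: compound concentration not given in the record; tested on top of an EC20 dose of dopamine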
#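 PathHunter D2 cells, attached overnight at 37 deg C, received compound in DMSO plus dopamine at EC20 (50 nM final) for 90 min at 37 deg C. Beta-arrestin recruitment was read as luminescence after 1 h with detection reagent at ambient temperature.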
# gsp agonist: agonists of gsp mutant (McCune-Albright syndrome). gsp mutant cells, cAMP HTRF, 30 min; control for the full effect not named in the record. AID 624287. 0.13% of 340,000 active. Potency, µM (highest dose often 76.9 µM), for inactives: at the top dose activation (cAMP increase), usual class: activators; active = well fitted activation curve with a large enough effect; inconclusive = small, poorly fitted or top-dose-only effect, or another doubt; inactive = no such curve, though single readings can be large or run the other way; cell line not stated here;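 also: phosphodiesterase inhibitor Ro 20-1724 added with compounds to block cAMP breakdown; potency is read from the fitted curve at half-maximal effect; nearly all actives have a fitted effect of over 60% in size; about a fifth of the inactives were tested at one dose only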
#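 Cells in DMEM/10% FBS with G418 were pretreated with compounds in DMSO plus […] (300 uM stock) for 30 min at 37C. cAMP was measured by HTRF (cAMP-d2 plus anti-cAMP antibody-K) after 30 min at room temperature.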
# Sfp inh: blocks B. subtilis Sfp PPTase activity | Biochemical Sfp PPTase activity, qHTS | Potency, µM, inactives show max response, negative = inhibition, actives largely listed as inhibitors | 3.5% of 310,000 active; active = well fitted inhibition curve with a large enough effect; inconclusive = small, poorly fitted or top-dose-only effect, or another doubt; inactive = no such curve, though single readings can be large or run the other way;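 also: the enzyme is Sfp with the accession as filed and its product quenches rhodamine fluorescence; potency is read from the fitted curve at half-maximal effect; 0% = enzyme reaction without inhibitor and -100% = no enzyme wells; top concentration of the series not given in the record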
#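 Buffer: 50 mM Hepes-Na pH 7.6, 10 mM MgCl2, 0.01% Nonidet P-40, 0.01% BSA. Enzyme 15 nM, pre-exposed to compound 15 min; substrates then added and fluorescence change tracked over 30 min.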
# ClpP mod: qHTS Assay for Activators of ClpP | ATP-dependent Clp protease proteolytic subunit (Bacillus subtilis (strain 168)), P80244 | purified B. subtilis ClpP, FRET peptide cleavage, 20 min | Potency, µM (series often up to 57.5 µM), inactives show top-dose activity change, negative = active | 1.9% of 340,000 active | AID 651965, 2013; active = well fitted falling curve with a large enough effect; inconclusive = small, poorly fitted or top-dose-only effect; inactive = no such curve, though single readings can be large or run the other way; also: potency is read from the fitted curve at half-maximal effect; the source files actives as falling curves though it sought activators and does not explain the sign; nearly all actives have a fitted effect of over 65% in size; many hits overshoot -100%
# Target sequence (P80244 whole entry, looked up): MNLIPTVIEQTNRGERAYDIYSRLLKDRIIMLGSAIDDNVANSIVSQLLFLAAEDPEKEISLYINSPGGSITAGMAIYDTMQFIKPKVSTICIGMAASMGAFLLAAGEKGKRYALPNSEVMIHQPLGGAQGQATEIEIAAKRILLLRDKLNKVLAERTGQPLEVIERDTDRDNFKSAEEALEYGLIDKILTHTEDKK
#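 ClpP 10 microg/mL final, pH 8 Tris/KCl buffer with BSA, glycerol, Tween-20; compound pinned in; FRET-FV substrate; RT 20 min; Ex320/Em430; ΔFRET vs ADEP 5.8 microM, DMSO, no enzyme.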
# gsp antagonist: antagonizes gsp, the McCune-Albright syndrome mutation; gsp-mutant cells, cAMP HTRF, 30 min; control for the full effect not named in the record; Potency, µM (titrated, usually from 76.9 µM), for inactives: at the highest dose activity change, negative = inhibition, usual class: inhibitors; 0.4% of 340,000 active; active = falling curve of any shape with a large fitted effect; inconclusive = falling curve, mostly with a smaller effect; inactive = flat or rising curve; cell line not stated here;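 also: intracellular cAMP measured with PDE inhibitor Ro 20-1724 present during compound exposure; potency is read from the fitted curve at half-maximal effect; % is scaled to controls: 0 for no effect and ±100 for the full control effect; nearly all actives have a fitted effect of over 65% in size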
#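 HTRF cAMP measurement after 30 min RT detection following 30 min, 37C compound treatment alongside […] (added as 300 uM solution) in G418-selected cells seeded at 2000/well and grown 16–24 h.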
# * marks the source's active call; other numbers are inactive results; i = inactive; ? = inconclusive; . = no result given; [ ] = another dose, or the depositor's remark.
# Sequence of screens: Menin-MLL FL inh	TRPV1 potentiator	D2 potentiator	gsp agonist	Sfp inh	ClpP mod	gsp antagonist
> CCN(c1ccccc1)S(=O)(=O)c1ccc(Oc2ccccc2C(C)=O)nc1
  .	.	-5	36%	.	.	0%
> CCOc1ccc(Nc2ncnc3ccc([N+](=O)[O-])cc23)cc1
  0.4	-54	11	12%[15.4 µM]	-5%	.	-27%
> O=C(NCC(=O)N(CCN1CCOCC1)C(C(=O)NC1CCCC1)c1ccccc1)c1cccs1 (stereo not given)
  -1.4	3	1	-14%	7%	.	-5%
> CCOC(=O)CN1C(=O)C(C)(C)Oc2ccc(C(=O)NC(C)(C)CC)cc21
  3.2	-7	-9	-18%	4%	-2.9%	5%
> O=C(Nc1ccc(NS(=O)(=O)c2ccc([N+](=O)[O-])cc2)cc1)c1ccco1
  2.8	7	-3	-47%[inhibitor]	-5%	?	?
> Cc1cc(C(=O)N(C)Cc2c(F)cccc2Cl)c2ccccc2n1
  0.9	-4	16	6%[15.4 µM]	22%	.	?
> CC1CCCN(Cc2nc3c(c(=O)n(C)c(=O)n3C)n2CC(=O)c2ccccc2)C1 (stereo not given)
  0.0	4	-3	-54%[inhibitor]	-12%	-0.8%	0%
> Cc1cc(=O)[nH]c(N/N=C/c2ccc(Cl)cc2Cl)n1
  2.0	6	-9	-17%	-4%	-9.0%	6%
> Cc1cccc(Nc2nc(N)c([N+](=O)[O-])c(NCc3ccccc3)n2)c1
  -1.0	14	-7	-8%[15.4 µM]	-14%	.	19%
> O=C(NNC(=O)c1ccccc1Br)c1ccc2nc[nH]c2c1
  .	-2	-9	30%	12%	-2.6%	8%
> CCOC(=O)N1CCC(NS(=O)(=O)c2cc(Br)cc3c2N(C(=O)CC)CC3)CC1
  0.0	3	-21	18%[15.4 µM]	5%	-2.2%	3%
> CS(=O)(=O)N(CC(=O)NC1CCCC1)c1ccc2c(c1)OCCO2
  2.1	20	-6	-58%[inhibitor]	15%	0.8%	3%
> CCCC(=O)Nc1cc(-c2nnc(OC)c3ccccc23)ccc1N1CCCCC1
  -1.4	-13	.	.	-10%	.	.
> CSC(=NCc1ccc(F)cc1)NS(=O)(=O)c1cccs1
  -1.0	?	-19	22%	2%	1.3%	9%
> O=C(CSc1nncs1)Nc1ccc(Cl)cn1
  2.2	-1	-21	-3%	8%	2.7%	12%
> CC1(C)CC(=O)CC2(C1)NCC(c1ccccc1)c1c2[nH]c2ccccc12 (stereo not given)
  2.2	5	-7	0%	-3%	0.0%	-27%
> CCOc1cc(C2C(C(=O)OC(C)C)=C(C)N=C3SCCC(=O)N32)ccc1OC(C)=O (stereo not given)
  5.9	19	21	8%	0%	-0.6%	-10%
> NC(=O)CC(NC(=O)Cc1ccc(Br)cc1)c1ccc(N2CCC(N3CCCCC3)CC2)c([N+](=O)[O-])c1 (stereo not given)
  -2.0	-13	-14	.	14%	0.9%	9%
> O=C(NCc1cccnc1)c1ccc(S(=O)(=O)Nc2ccccc2)cc1
  .	30	-9	-7%[15.4 µM]	.	3.0%	4%
> COc1ccccc1C1CN(c2ccc(F)cc2F)N=C1c1cccs1 (stereo not given)
  3.0	4	-12	11%	?	?	3%

# (list continues)
# Sequence of screens: Menin-MLL FL inh	TRPV1 potentiator	D2 potentiator	gsp agonist	Sfp inh	ClpP mod	gsp antagonist
> CCC(C)c1ccc(OCC(=O)O)cc1 (stereo not given)
  4.5	18	13	-10%	11%	1.0%	1%
> Cc1ccc(OCC(=O)N/N=C\c2ccc(-c3cccc(C(=O)O)c3)o2)c(C)c1
  4.6	19	10	-5%	?	?	-14%
> Cc1ccc(-n2c(SCC(=O)NCCN3C(=O)CSC3=O)nnc2-c2ccccc2)cc1
  3.7	-14	-12	-22%	-2%	-2.3%	0%
> Cc1ccc(NC(=O)Cn2nnc(-c3ccccc3-n3cnnn3)n2)c(C)c1
  3.0	5	-10	0%[15.4 µM]	0%	.	2%
> O=C(CSc1nc2ncc(Cl)cc2[nH]1)N1CCC(Cc2ccccc2)CC1
  .	.	-36	-46%[15.4 µM]	.	-2.9%	3%
> CC1CCN(C(=O)Cn2c3ccccc3c3nc4n(c(=O)c32)CCS4)CC1
  .	4	-4	-54%[inhibitor]	0%	4.8%	-7%
> COC(=O)C1CSC2c3ccccc3C(=O)N12 (stereo not given)
  .	.	-10	9%[15.4 µM]	.	.	3%
> CCOC(=O)c1[nH]c(C)c(/C(O)=C2\C(=O)C(=O)N(CCCN3CCOCC3)C2c2cccs2)c1C (stereo not given)
  6.1	.	-3	29%[15.4 µM]	-18%	.	17%
> Cc1ccc(N(Cc2ccccc2)C(=O)c2cc(S(=O)(=O)N3CCOCC3)ccc2Cl)cc1
  .	-10	2	12%[15.4 µM]	.	.	-17%
> CC1(C)Oc2ccc3ccc(=O)oc3c2[C@@H](O)[C@@H]1O
  .	11	-4	.	.	4.5%	11%
> C=CCn1c(SCc2ccc(C#N)cc2)nnc1-c1cccc(Cl)c1
  1.4	7	-11	-4%	6%	12%	-5%
> COC(=O)CNC(=O)c1ccc(F)cc1
  0.9	-1	1	8%[15.4 µM]	12%	?	3%
> CCCc1cc(C(=O)Nc2cc(C)on2)no1
  -0.2	29	-1	11%	7%	-2.0%	-6%
> CCNC(=S)Nc1ccc(N(c2ccccc2)C(C)C)cc1
  -0.5	8	12	?	?	21%	-4%
> O=C(Nc1ccccc1N1CCCC1)C1=COCCO1
  .	-10	-2	-19%	.	-2.2%	6%
> c1ccc(COc2ccc(OCCCCN3CCCCC3)cc2)cc1
  4.1	9	-44	2%	-33%	0.5%	10%
> Cn1c(=O)[nH]c(=O)c2c1nc(SCCO)n2CCCc1ccccc1
  0.7	25	-2	21%	-6%	-1.5%	3%
> COC(=O)NC(=C(Cl)Cl)S(=O)(=O)c1ccccc1
  -0.1	9	-26	1%	12%	0.8%	-2%[15.4 µM]
> CCCCn1c(C)cc2c(c1=O)C1O[C@](c3ccc(OC)cc3)(Cc3cc(OC)c(OC)cc31)O2
  -4.9[11.7 µM]	i	.	.	-12%	.	.
> CSc1nc(N)nc2c1ncn2C1OC(CO)CC1O (stereo not given)
  .	.	-8	-7%	.	-22%	9%

# Further results follow:
# Sequence of screens: Menin-MLL FL inh	TRPV1 potentiator	D2 potentiator	gsp agonist	Sfp inh	ClpP mod	gsp antagonist
> CC1=Nn2c(nnc2-c2ccccn2)SC1
  1.9	19	-4	-20%	-3%	-0.3%	10%
> COc1ccc(NS(=O)(=O)c2ccc(C(=O)N(C)Cc3cccs3)cc2)cc1
  .	16	-12	15%[15.4 µM]	.	.	-1%
> C=CCn1c(=O)c2c(nc3n2CCS3)n(C)c1=O
  4.7	20	-7	-1%	-9%	-1.4%	0%
> CC1CN(c2ccc([N+](=O)[O-])cc2Cl)CCN1S(C)(=O)=O (stereo not given)
  2.9	-3	-8	?	?	-2.1%	-9%
> O=C(CCc1ccc(S(=O)(=O)N2CCOCC2)cc1)OCC(=O)c1ccccc1
  .	.	-3	8%	.	.	1%
> CSc1nnc(C)c(=O)n1COC(=O)c1ccccc1
  0.2	3	5	-4%	4%	.	5%
> CC(=O)NC(CC(=O)NNC(=O)c1cccs1)c1ccccc1 (stereo not given)
  .	10	4	4%[15.4 µM]	.	.	6%
> COc1ccc2c(c1)c1nc3n(c(=O)c1n2CC(=O)Nc1cc(C)[nH]n1)CCS3
  -0.7	-2	.	.	7%	.	.
> CCOc1ccccc1-c1nc(CN2CCCC2c2nccs2)c(C)o1 (stereo not given)
  -3.7	4	-9	-11%[15.4 µM]	-5%	.	-29%
> CC(=O)N1c2ccc(S(=O)(=O)N3CCCC(C(=O)NCc4ccc(Cl)cc4)C3)cc2CC1C (stereo not given)
  4.8	8	11	-49%[inhibitor]	16%	1.3%	?
> O=C(NCCO)c1nc(C(=O)c2ccc(Cl)cc2)c2ccccc2n1
  .	-19	-1	.	.	-0.3%	9%
> Cc1ccc(OCCNC(=O)Cc2ccc(F)cc2)cc1
  1.8	-13	1	0%	5%	1.0%	8%
> COc1ccc2ccccc2c1C1CC(=O)N2CN(Cc3ccco3)CSC2=C1C#N (stereo not given)
  8.4	.	-4	-4%	5.6µM*	-2.1%	?
> O=P(OC1CCCCC1)(OC1CCCCC1)C(O)c1c(Cl)cccc1Cl (stereo not given)
  0.3	-20	0	12%	17%	-1.0%	-7%
> ON=C1CCN(c2ncc(C(F)(F)F)cc2Cl)CC1
  1.3	?	-11	-1%	0%	-2.8%	5%
> COc1ccc(C2C(=O)N(C3CCCCCC3)CC(=O)N2Cc2ccccc2)cc1OC (stereo not given)
  1.4	-25	-13	-42%[inhibitor]	16%	1.0%	-12%
> CC(=O)Nc1ccc(S(=O)(=O)NCc2ccc3c(c2)cc(C)n3C)cc1
  ?	-9	-6	0%	-12%	-1.2%	3%
> COc1cc2c(c(OC)c1OC)-c1c(cc3c(c1OC)OCO3)C[C@H](C)[C@@](C)(O)C2
  0.1	8	7	.	4%	-0.5%	-8%
> Cc1cc(=O)n(C)c(=O)n1CCCCCCOc1ccc([N+](=O)[O-])cc1
  -0.7	-8	.	.	7%	.	.
> O=C(CC1C(=O)NCCN1C(=O)Nc1ccccc1)Nc1ccc(F)cc1 (stereo not given)
  3.0	-13	-4	-7%[15.4 µM]	-2%	-1.0%	1%

# More records follow.
# Sequence of screens: Menin-MLL FL inh	TRPV1 potentiator	D2 potentiator	gsp agonist	Sfp inh	ClpP mod	gsp antagonist
> Cn1cc(CNC(=O)C23CC4CC(CC(C4)C2)C3)cn1
  1.6	-12	7	-22%	2%	-1.1%	11%
> Cc1ccc(-n2ncc(Br)c(Br)c2=O)cc1
  2.2	0	-3	?	4%	0.7%	?
> COC(=O)c1ccc(S(=O)(=O)N2CCCN(Cc3ccc(F)cc3)CC2)n1C
  1.2	-4	-15	4%	15%	-3.0%	5%
> O=C(NNC(=O)c1ccc(-c2ccccc2)cc1)Nc1ccc(F)cc1F
  .	4	-3	-3%	-5%	-0.9%	9%
> COCCN(C(=O)CCC(=O)Nc1ccccn1)C(C(=O)NCCC(C)C)c1ccc(OC)cc1 (stereo not given)
  0.0	5	-7	-1%	15%	-3.2%	-6%[15.4 µM]

# Source: PubChem BioAssay (National Center for Advancing Translational Sciences (NCATS))
